# Source: PubChem (ICCB-Longwood Screening Facility, Harvard Medical School)
# PV pol inh: poliovirus RdRp elongation inhibitors, primary screen, biochemical, fluorescence polarization, total intensity | poliovirus polymerase elongation; stronger effect = lower value | AID 588519, 2011 | % elongation, % (compound at 16.7 µg/mL) | Genome polyprotein (Poliovirus type 1 (strain Mahoney)), P03300 | 0.66% of 150,000 active; in the data active = % elongation below about 90%; note: some results filed as inactive read as strong as hits
# Target sequence (P03300 1749-2209 limits assumed): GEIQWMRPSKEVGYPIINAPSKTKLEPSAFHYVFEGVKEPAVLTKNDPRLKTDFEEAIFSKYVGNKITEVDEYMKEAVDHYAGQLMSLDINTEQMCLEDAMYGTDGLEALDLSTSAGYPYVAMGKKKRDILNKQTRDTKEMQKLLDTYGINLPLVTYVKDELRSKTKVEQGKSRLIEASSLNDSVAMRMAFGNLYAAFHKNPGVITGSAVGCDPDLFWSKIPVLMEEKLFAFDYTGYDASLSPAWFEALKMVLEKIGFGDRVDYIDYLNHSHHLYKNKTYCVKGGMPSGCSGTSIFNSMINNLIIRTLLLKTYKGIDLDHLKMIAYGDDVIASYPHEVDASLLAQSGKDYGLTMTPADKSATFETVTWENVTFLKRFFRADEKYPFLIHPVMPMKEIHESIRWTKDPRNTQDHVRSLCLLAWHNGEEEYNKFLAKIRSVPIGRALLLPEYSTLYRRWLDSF
# PV pol inh intensity: second read-out of PV pol inh, no call of its own (marks repeat the call); % elongation; measured here: total intensity read-out; formula for this scale not given here;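 total fluorescence in place of polarization; lower means less elongation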
# The depositor's hits bear a star.
SMILES,PV pol inh,PV pol inh intensity
COc1ccc(-n2ccnc2SCC(=O)Nc2ccc(F)cc2F)cc1,110,105
COc1ccc2c(c1)c1c(c(=O)n(-c3ccccc3C)c(=O)n1CC(=O)NCc1ccc(C)cc1)n2C,106,113
CCOc1ccccc1CNC(=O)c1ccc2c(c1)N(Cc1ccc(C)cc1)CCS2,107,111
COc1cc2cc(CNc3ccccc3)c(=O)n(CC(=O)Nc3cc(C)cc(C)c3)c2cc1OC,103,133
Cc1cccn2c(=O)c3cc(C(=O)NC(C)C)n(C)c3nc12,110,111
Cc1cccc(OCC(=O)Nc2cccc(-c3nc4ccccc4s3)c2)c1,108,111
COc1cccc(N2CC(NC(=O)c3ccc4c(c3)OCO4)CC2=O)c1 (stereo not given),97,98
CC(=O)Nc1ccc2nc(NC(=O)CS(=O)(=O)c3ccc(C)cc3)sc2c1,102,108
O=S(=O)(Nc1ccc(Cl)cc1)c1cccc(S(=O)(=O)c2ccc(Cl)c(Cl)c2)c1,107,112
CC1CCn2c(nc3cc(C(=O)NCCc4ccccc4)ccc32)C1 (stereo not given),104,107
CCOC(=O)c1ccc(N2C(=O)c3[nH]nc(-c4ccc(C)cc4)c3C2c2ccc(O)c(OCC)c2)cc1 (stereo not given),109,110
CCOC(=O)c1ccc(NC(=O)C(=O)NCCc2ccc(OC)cc2)cc1,108,111

# 2 entries drawn at random from those above, as already listed:
SMILES,PV pol inh,PV pol inh intensity
CC1CCn2c(nc3cc(C(=O)NCCc4ccccc4)ccc32)C1 (stereo not given),104,107
O=S(=O)(Nc1ccc(Cl)cc1)c1cccc(S(=O)(=O)c2ccc(Cl)c(Cl)c2)c1,107,112

# Structures listed so far containing four or more nitrogen atoms (2):
SMILES,PV pol inh,PV pol inh intensity
COc1ccc2c(c1)c1c(c(=O)n(-c3ccccc3C)c(=O)n1CC(=O)NCc1ccc(C)cc1)n2C,106,113
Cc1cccn2c(=O)c3cc(C(=O)NC(C)C)n(C)c3nc12,110,111

# Look-ups from the results shown:
# Entry of `CCOc1ccccc1CNC(=O)c1ccc2c(c1)N(Cc1ccc(C)cc1)CCS2` under PV pol inh: 107
# Entry of `COc1cccc(N2CC(NC(=O)c3ccc4c(c3)OCO4)CC2=O)c1` (stereo not given) under PV pol inh intensity: 98
# Entry of `COc1ccc(-n2ccnc2SCC(=O)Nc2ccc(F)cc2F)cc1` under PV pol inh intensity: 105
# Entry of `COc1cc2cc(CNc3ccccc3)c(=O)n(CC(=O)Nc3cc(C)cc(C)c3)c2cc1OC` under PV pol inh: 103
# Entry of `Cc1cccc(OCC(=O)Nc2cccc(-c3nc4ccccc4s3)c2)c1` under PV pol inh: 108
# Entry of `CCOC(=O)c1ccc(NC(=O)C(=O)NCCc2ccc(OC)cc2)cc1` under PV pol inh intensity: 111

# Continued:
SMILES,PV pol inh,PV pol inh intensity
COc1ccccc1C1NC(=O)c2n[nH]c(-c3cccs3)c21 (stereo not given),107,107
COc1cccc(CNC(=O)Cn2ccc3cc(S(=O)(=O)N4CCC(C)CC4)ccc32)c1,110,113
CCC(C(=O)NCCC(C)C)N(C(=O)Cn1nnc(-c2ccc(C)cc2)n1)c1cccc(O)c1 (stereo not given),108,110
CC(C)(C)c1ccc(NC(=O)CSc2nnc3scc(-c4ccccc4)n23)cc1,104,108
Cc1ccc(-n2nc3c(N4CCCC(C(=O)NCCc5ccccc5)C4)nnc(C)c3c2C)cc1 (stereo not given),107,113
CN(C)S(=O)(=O)c1ccc(C(=O)N(Cc2cccnc2)c2nc3c(F)cc(F)cc3s2)cc1,104,110
CCc1ccc(NC(=O)C2CCN(S(=O)(=O)c3cccc(-c4noc(C)n4)c3)CC2)cc1,104,107
CCOC(=O)c1ccccc1NC(=O)N(C(C)C)C1CCN(C(C)=O)CC1,111,114
O=C(NCc1ccccc1)c1cccc(N2CCCS2(=O)=O)c1,106,100
CCCN(CCC)C(=O)Cn1nnc2sc(-c3ccccc3)cc2c1=O,105,112
COc1ccccc1Cc1nc2ccccc2[nH]c1=O,103,96
COc1cc(NC(=O)Cn2c(=O)n(Cc3ccccc3Cl)c(=O)c3cc(OC)c(OC)cc32)cc(OC)c1,107,109
CCOC(=O)c1cnc2c(C(F)(F)F)cccc2c1Nc1cccc(C(=O)OC)c1,102,103
CCOc1ccc(NC(=O)c2cnc(N3CCCCC3)c3ccccc23)cc1,111,115
O=C(c1ccc2c(c1)CCN2S(=O)(=O)c1ccccc1)N1CCN(c2ccc(F)cc2)CC1,107,108
Cn1c2c(c(=O)n(C)c1=O)C(c1ccccc1[N+](=O)[O-])CC(=O)N2 (stereo not given),103,106
CN(C)c1ccc(NC(=O)CSC2=Nc3ccccc3C3=NC(CC(=O)NCc4ccccc4)C(=O)N23)cc1 (stereo not given),112,99
COc1ccc(-c2noc(-c3ccc(N4CCCCC4)c([N+](=O)[O-])c3)n2)cc1,107,112
CCOC(=O)C1CCN(C(=O)Cn2nc(C)n3c(cc4cc(F)ccc43)c2=O)CC1,108,112
CCSc1nc(=O)c2c(n1C)NC(=O)CC2c1ccc(O)cc1OC (stereo not given),106,103
Cc1cc(Cl)ccc1NS(=O)(=O)c1c(C(=O)N2CCC(C)CC2)c(C)n(C)c1C,103,110
O=C(Cn1c(=O)nc(-c2ccccc2)c2cc(Cl)ccc21)NCCc1ccccc1,108,115
Cc1ccc(C)c(NC(=O)c2nn(C)c3c2CS(=O)(=O)c2ccccc2-3)c1,105,105
CC1CCc2onc(C(=O)N3CCN(c4cccc(Cl)c4)CC3)c2C1 (stereo not given),104,107

# An excerpt of these results, with values under each structure:
# Value order – PV pol inh | PV pol inh intensity
- CC1CCc2onc(C(=O)N3CCN(c4cccc(Cl)c4)CC3)c2C1 (stereo not given)
    104 | 107
- O=C(Cn1c(=O)nc(-c2ccccc2)c2cc(Cl)ccc21)NCCc1ccccc1
    108 | 115

# The list goes on:
SMILES,PV pol inh,PV pol inh intensity
COc1ccc(N2CC3=C(C2=O)C(c2ccc(O)c(OC)c2)NC(=O)N3C)cc1 (stereo not given),106,108
COc1cc(NC(=O)c2cnn(-c3cccc(F)c3)c2C2CCNCC2)cc(OC)c1OC,106,102
CCOC(=O)C1CCN(c2cc(C)nc3c(-c4ccccc4OC)c(C)nn23)CC1,100,103
CCc1ccc(CNC(=O)c2cnc3sc(N4CCCCC4)nn3c2=O)cc1,100,105
CCc1c(C)sc(NC(=O)c2cc(-c3ccc(OC)c(OC)c3)on2)c1C#N,95,97
O=C(NCc1ccc(Cl)cc1)c1cnc2sc(N3CCCCCC3)nn2c1=O,106,114
Cc1sc2c(c1C)c(=O)n(CCc1ccccc1)c(=O)n2Cc1ccc(F)cc1,106,111
O=C1CCCc2cc(S(=O)(=O)N3CCCC(C(=O)NCc4ccccc4Cl)C3)ccc2N1 (stereo not given),109,117
Cc1nc2c3cccnc3nn2c(C)c1CCC(=O)NCc1ccccc1Cl,99,96
COc1ccccc1Cn1cc(C(=O)c2ccc(Cl)cc2)c(=O)c2cc3c(cc21)OCCO3,104,108
Cc1c(Cl)cccc1NC(=O)C(C)n1nc(C)c2c(C)n(-c3ccccc3)nc2c1=O (stereo not given),106,114
COc1ccc(CNC(=O)c2ccc(-c3nc(CSc4ccc(C)cc4)c(C)o3)cc2)c(OC)c1,102,101
Cc1ccc(CNC(=O)C2CCCN(c3nnc(-n4c(C)ccc4C)s3)C2)cc1 (stereo not given),104,107
CC1=C(C(=O)Nc2ccccc2)C(c2ccccc2C)n2ncc(C(=O)Nc3ccccc3)c2N1 (stereo not given),109,102
COc1cccc(-n2c(-c3ccco3)nc3c(cnn3-c3ccc(C)cc3)c2=O)c1,112,108
Cc1cccc(N2CCN(C(=O)c3nn(C)c4c3CS(=O)(=O)c3ccccc3-4)CC2)c1C,112,104
Cc1ccccc1C(=O)N1CCC(N2CCN(Cc3ccc(F)cc3)C(=O)C2=O)CC1,114,107
COc1cc(CN(C(=O)Nc2cccc(Cl)c2)c2ccccn2)cc(OC)c1OC,109,109
Cc1cccc(NC(=O)Cn2c(=O)n(Cc3ccc4c(c3)OCO4)c(=O)c3ccccc32)c1,106,109
CCCCN(C)C(=O)Cn1c(C2CC(=O)N(c3ccc(C)cc3)C2)nc2ccccc21 (stereo not given),110,112
Cc1ccc(C)c(N2CCN(S(=O)(=O)c3ccc(-c4coc(C)n4)cc3)CC2)c1,109,114
CC1=C(C(=O)Nc2ccccc2)C(c2ccccc2C)n2nc(SCC(=O)c3ccc(C)cc3)nc2N1 (stereo not given),97,105
COc1ccc(-c2nc(S(=O)(=O)c3ccc(C)cc3)c(NCc3ccccc3)o2)cc1,106,107
COc1ccc(NCc2cccn2-c2nnc(N3CCCCCC3)s2)cc1,102,107
CCOC(=O)c1sc(NC(=O)c2nc3nc(C)cc(C(F)F)n3n2)c(C(=O)OC(C)C)c1C,104,104
CC(C)n1c(SCC(=O)Nc2ccc(F)cc2)nc2c(oc3ccccc32)c1=O,105,107
Cc1cc2nc(-c3ccc(NC(=O)c4ccccc4F)cc3)oc2cc1C,24*,38*
Nc1cc(=O)nc(SCC(=O)Nc2ccc(F)cc2)n1-c1ccccc1Cl,106,111
O=C(CS(=O)(=O)c1cccc2nsnc12)N1CCN(c2ccccc2F)CC1,102,105
Cc1ccccc1Cn1c(=O)n(CCCCC(=O)NCc2ccccc2Cl)c(=O)c2ccccc21,105,107
CC(=O)Nc1ccccc1-c1nc2ccccc2n(C(C)C(=O)c2ccc(C)c(C)c2)c1=O (stereo not given),97,95
Cc1ccc(CNC(=O)CCCCCn2c(=O)c3sccc3n(CC(=O)N(C)c3ccccc3)c2=O)cc1,107,110
Cc1ccccc1C(=O)Nc1cc(C)c(O)c(-c2nc3ccccc3o2)c1,103,110
Clc1ccccc1CNc1ncnc2c1c(-c1ccccc1)cn2-c1ccccc1,111,117
O=C(CSc1nccn1-c1cccc(Cl)c1)Nc1cccc(C(F)(F)F)c1,112,109
CCc1ccc(NC(=O)c2cc(=O)c3ccc(C)c(C)c3o2)cc1,102,95
COc1ccc(CNC(=O)c2cnc3sc(N4CCC(C)CC4)nn3c2=O)c(OC)c1,112,114
CCC(C(=O)Nc1ccccc1C(=O)OC)n1nc(C)c2c(C)n(-c3ccc(C)cc3)nc2c1=O (stereo not given),103,106
CCS(=O)(=O)N1N=C(c2ccc(C)cc2)CC1c1cc2ccc(OC)cc2nc1Cl (stereo not given),129,162
Cc1ccccc1C(=O)Nc1c(C)nc2ccccn2c1=O,97,106
Cc1ccc(Nc2c(-c3ccc(C)cc3)nc3c(C)cccn23)cc1,110,112
COC(=O)c1ccccc1NC(=O)Cn1c(=O)n(-c2cccc(OC)c2)c(=O)c2c(C)c(C(=O)N(C)C)sc21,106,102
COc1cc(OC)cc(C(=O)Nc2ccc(Cl)cc2C(=O)c2ccccc2Cl)c1,103,104
Cc1ccc(NC(=O)CSc2nc3c(c(=O)[nH]2)CN(Cc2ccc4c(c2)OCO4)CC3)cc1C,113,116
O=S(=O)(NCC(c1cccs1)S(=O)(=O)c1ccccc1)c1ccc(F)c(C(F)(F)F)c1 (stereo not given),90,90
CCOC(=O)c1ccc(NC(=O)c2ccc3c(c2)CCN3S(=O)(=O)c2ccc(Cl)cc2)cc1,106,109
CN(C)c1ccc(C(CNS(=O)(=O)c2ccc(Cl)cc2)N2CCOCC2)cc1 (stereo not given),101,108
COCCNC(=O)CCc1c(C)nc2c(c(C)nn2-c2ccc(C)cc2)c1C,109,109
O=C(CSc1nc(=O)n(Cc2ccco2)c2c1CCC2)Nc1cccc(F)c1,104,106
CCC1CCCCN1CCCNC(=O)c1sc2nc(C)cc(C)c2c1-n1cccc1 (stereo not given),105,110
Cc1ccc(N2C(=O)CSC23C(=O)N(Cc2ccccc2F)c2ccccc23)cc1F (stereo not given),101,98
COc1cccc(-c2nnc(SCC(=O)N(C)c3ccccc3)o2)c1,103,109
O=C(COc1ccccc1)NCC(c1ccc(Cl)cc1)N1CCOCC1 (stereo not given),103,107
COC(=O)c1ccccc1NC(=O)c1nc(-c2ccc(C)cc2)n2c1CCCCC2,112,109
CCOC(=O)c1c(-c2ccccc2)oc2ccc(NS(=O)(=O)c3ccc(OC)cc3)cc12,107,105
COc1ccc(NC(=O)/C=C\C(=O)N(c2ccc(C(C)C)cc2)C(C(=O)NCc2ccco2)c2ccc(C)cc2)cc1 (stereo not given),115,110
CCCCN1CC(c2nc3ccccc3n2CCCCOc2ccccc2C)CC1=O (stereo not given),108,104
COc1cc(NC(=O)CC(C)S(=O)(=O)c2ccc3c(c2)CCN3C(C)=O)cc(OC)c1OC (stereo not given),107,112
COc1ccccc1NC(=O)CSc1nc2c(oc3ccccc32)c(=O)n1-c1ccc(C)cc1,103,104
CCOc1ccc(C(=O)NCC(c2ccc3c(c2)OCO3)N2CCN(C)CC2)cc1 (stereo not given),102,101

# (next part)
SMILES,PV pol inh,PV pol inh intensity
O=C(C1CC1)N1CCN(c2nc3c(Cl)cccc3s2)CC1,100,107
COc1ccc(C(=O)OC2=C(C(=O)c3ccccc3)N(C)S(=O)(=O)c3ccccc32)cc1OC,102,100
COc1ccc(C)cc1-n1nnc(-c2nc(-c3ccccc3Cl)no2)c1N,106,114
CC(=O)c1cc2c(cc1N/C(=N/S(=O)(=O)c1ccc(Cl)cc1)c1ccc(F)cc1)OCO2,108,111
COc1cc2[nH]c(=O)n(CCCCCC(=O)NCCc3ccccc3)c(=O)c2cc1OC,107,108
COc1ccc(NC(=O)c2nc(SCc3ccccc3F)ncc2Cl)cc1,110,112
CC(=O)Nc1ccc(S(=O)(=O)NC2=NCN(CCO)CN2)cc1,108,107
CC(C)CC(=O)Nc1nnc(S(=O)(=O)N2c3ccccc3CC2C)s1 (stereo not given),110,112
CC(=O)N1c2ccccc2C(=O)C1N1CCN(c2cccc(C(F)(F)F)c2)CC1 (stereo not given),108,112
COc1ccc(CNC(=O)c2cc(C3CC3)nc3c2c(C)nn3-c2cccc(Cl)c2C)cc1,110,106
CCN(CC)C(=O)CSc1nc2cc3c(cc2c(=O)n1CCCCCC(=O)NCc1ccc(OC)cc1)OCO3,106,103

# Some of the compounds tested (hit frequency here may not be typical).
